High-throughput results from PubChem.
Calb FLC = C. albicans growth modulation with fluconazole; C. albicans CaCi-2 (fluconazole-resistant clinical isolate) + fluconazole, Alamar Blue growth, 48 h; growth inhibition, % (concentration not given with the values); 300,000 tested, 0.57% active; AID 1979;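 active = most replicates above 75%; inconclusive = exactly half above 75%; inactive = most below 75%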;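 note: all wells also contain fluconazole at 8 µg/ml as a sub-toxic cotreatment; 0% = median of DMSO wells and 100% = median of geldanamycin control wells; wells of about 8 µL received 7.5 nL stock; the first replicate is given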
T cruzi inh = T. cruzi replication inhibition. T. cruzi beta-gal in NIH3T3, luminescence, 90 h. AID 1885. 300,000 tested, 1.4% active. inhibition, % (no concentration beside the values);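 active = mean inhibition across valid replicates above about 55%, limit read from the data; inconclusive = mean below that limit but half or more replicates reach it; inactive = mean below it, under half of replicates reach it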;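 note: signal also drops with host cell toxicity which is not excluded here; 0% = plate median of DMSO wells and 100% = zero luminescence signal; higher percent means less beta-gal luminescence so fewer parasites; stock transfer was 50 nL into about 50 µL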
LANA-H2A inh = blocks KSHV LANA binding to histone H2A/H2B; cell-free LANA-H2A/H2B peptide, fluorescence polarization; inhibition, % (no concentration beside the values); 320,000 tested, 0.6% active; AID 2629; in the data active = inhibition mostly above about 10%, no sharp cut-off; inactive = mostly below about 6.7%;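 note: stock transfer was 7.5 nL into about 10 µL; 0% = median of vehicle wells and 100% = median of positive control wells; one replicate is shown; the record names a cut of 25% in any replicate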
UCH37 inh = inhibitors of human deubiquitinating enzyme UCH37. Q9Y5K5. purified proteasome/UCH37, Ub-AMC cleavage fluorescence. inhibition, % (test concentration not listed). 330,000 tested, 0.33% active. AID 588478;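 active = mean of two replicates above 20%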;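 note: 0% = compound-free wells with enzyme and 100% = wells lacking proteasome; stock transfer was 100 nL into about 20 µL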
Target sequence (Q9Y5K5 whole entry, looked up): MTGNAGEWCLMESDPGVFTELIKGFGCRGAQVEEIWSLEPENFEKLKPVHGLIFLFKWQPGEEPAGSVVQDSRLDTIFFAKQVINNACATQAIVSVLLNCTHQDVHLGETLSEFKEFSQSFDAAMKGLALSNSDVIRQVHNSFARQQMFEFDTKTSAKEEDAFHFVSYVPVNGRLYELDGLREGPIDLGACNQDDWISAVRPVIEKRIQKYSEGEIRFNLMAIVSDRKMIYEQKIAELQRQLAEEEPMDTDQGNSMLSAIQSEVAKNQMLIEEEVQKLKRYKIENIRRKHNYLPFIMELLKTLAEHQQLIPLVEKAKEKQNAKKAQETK
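assay system = human UCH37 enzyme supplied as purified proteasome complex | amount = proteasome at 0.15 nM in the dispensed enzyme solution | schedule = 30 min compound-proteasome preincubation then 25 min substrate reaction, room temperature | measured by = fluorescence, ex 355 nm, em 460 nm | benchmarks = no-proteasome wells (full inhibition) and compound-free wells (no inhibition)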
Beta2AR agonist = agonists of human beta-2 adrenergic receptor inducing internalization. P07550. Am2.2-beta2AR cells, FAP receptor internalization, flow cytometry; reference of the scale not given here. response, % (no concentration beside the values). 340,000 tested, 0.43% active. AID 504454;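 active = response above a set limit, near 3 SD of response in nonfluorescent compounds, cut at about 42% in these data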;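 note: stock transfer was 100 nL into about 11 µL; a reference agonist was the positive control; negative values mostly stem from fluorescent compounds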
Target sequence (P07550 whole entry, looked up): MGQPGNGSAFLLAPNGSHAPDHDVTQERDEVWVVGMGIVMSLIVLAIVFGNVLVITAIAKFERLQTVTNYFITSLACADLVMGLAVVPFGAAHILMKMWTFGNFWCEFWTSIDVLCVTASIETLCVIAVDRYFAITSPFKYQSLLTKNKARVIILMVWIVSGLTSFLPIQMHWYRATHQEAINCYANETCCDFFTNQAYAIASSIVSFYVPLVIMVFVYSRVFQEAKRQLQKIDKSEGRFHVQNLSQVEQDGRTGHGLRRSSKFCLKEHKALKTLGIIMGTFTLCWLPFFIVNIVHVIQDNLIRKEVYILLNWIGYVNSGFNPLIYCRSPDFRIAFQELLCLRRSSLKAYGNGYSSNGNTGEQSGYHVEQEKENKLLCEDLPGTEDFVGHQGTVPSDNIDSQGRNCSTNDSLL
RanGTP-Impb inh = inhibitors of RanGTP-importin-beta interaction, primary screen, biochemical, FRET, CFP-Ran, YFP-importin-beta, homogeneous; inhibition, % (concentration not given with the values); 300,000 tested, 1.1% active; cell-free CFP-Ran/YFP-importin-beta FRET ratio;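 active = most replicates above 15%; inconclusive = exactly half above 15%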;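 note: 0% = DMSO wells and 100% = Ran loaded with GDP instead of GTP; wells of about 40 µL received 100 nL stock; the first replicate is given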
Bfl-1 A1 inh = inhibitors of the anti-apoptotic protein A1, read as caspase activation; 330,000 tested, 0.066% active; caspase activation, % (no concentration beside the values); AID 2462; MEF A1-2A-BIM cells, Caspase-Glo 3/7 luminescence, 3 h; percent of clofoctol response, vehicle zero;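 active = over half of replicate activation scores above 10%, or exactly half above 10 with the replicate mean above 10; inconclusive = replicate mean below 10 yet half the replicates above 10; inactive = over half of replicates below 10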;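 note: wells of about 30 µL received 50 nL stock; many hits fall short of the cut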
Beta apoptosis = beta cell apoptosis inhibition; INS-1E cytokine-induced death, ATP luminescence, 48 h; percent of positive-control rescue, neutral wells zero; protection from apoptosis, % (test concentration not listed); 300,000 tested, 0.8% active; AID 435005;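 active = all replicates at 75% or more, or half of them and the mean; inconclusive = half reach 75% but not the mean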;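 note: 0% = cytokine-treated negative control wells and 100% = positive control rescue; higher means more ATP so stronger rescue from cytokine killing; wells of about 40 µL received 100 nL stock; the first replicate is given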
* marks the source's active call; other numbers are inactive results; ? = inconclusive; / = no result given.

SMILES | Calb FLC | T cruzi inh | LANA-H2A inh | UCH37 inh | Beta2AR agonist | RanGTP-Impb inh | Bfl-1 A1 inh | Beta apoptosis
Cc1ccc(C)c(OCCC(=O)OCC(=O)Nc2ccc(Cl)cn2)c1 | 1 | -6 | -3.6 | -14 | -8 | -1.1 | -0.2 | 0
COc1ccc(CCNC(=O)CCc2cn(C)c3ccccc23)c(OC)c1OC | -10 | 0 | 3.7 | -1.0 | -9 | 0.7 | -0.4 | -1
COC(=O)Cn1c2nc3ccccc3nc2c2cccc(C)c21 | -6 | -5 | 6.5 | -84 | 3 | 6.6 | -1.5 | 13
CCn1c(COc2cccc(OC)c2)nnc1SCC(=O)NC1CCCC1 | 1 | -13 | / | -0.9 | -14 | 7.9 | / | /
O=C(O)C1=C[C@H](c2coc3ccccc3c2=O)C[C@H](OCCCCO)O1 | -1 | -5 | 1.4 | 4.9 | 1 | 0.8 | 0.7 | -1
Cc1ccc(S(=O)(=O)NC(=O)c2cc(C)n(-c3ccc(N(C)C)cc3)c2C)cc1 | -38 | -2 | -2.4 | / | 3 | -0.1 | 0.5 | -4
O=C(NNS(=O)(=O)c1ccc(F)cc1)c1cc(Cl)ccc1O | 0 | -4 | 1.4 | -11 | 9 | 0.6 | 0.0 | -5
CCN(CC)Cc1nc2c(c(=O)[nH]1)C1(CCCC1)Cc1ccccc1-2 | -45 | 9 | 2.6 | 3.0 | -19 | -4.7 | 1.7 | 8
CCCS(=O)(=O)c1csc(C(=O)OC)c1N | 14 | 7 | 1.7 | -7.9 | -5 | -3.6 | -0.5 | -4
CCOC(=O)C1=C(c2ccccc2)NC(=S)NC1c1ccc(Cl)cc1 (stereo unspecified) | -1 | -30 | -2.0 | 1.8 | -4 | -2.1 | -0.3 | /
C=CCNc1nc(Nc2ccc([N+](=O)[O-])cc2)nc(OCC)n1 | 17 | 9 | -3.0 | 4.8 | -3 | 2.5 | 0.5 | 13
O=C(Nc1nc2ccccc2[nH]1)C1CCC1 | 1 | 5 | 1.7 | 0.6 | -8 | -0.4 | -5.5 | 2
COc1ccc(C(=O)N=C2SC3CS(=O)(=O)CC3N2Cc2ccc(OC)c(OC)c2)cc1 (stereo unspecified) | -2 | 13 | 1.3 | -0.1 | 2 | 3.1 | -0.2 | -10
COc1cccc(/C=C2\SC(=S)N(CCCC(=O)Nc3cc(C)on3)C2=O)c1 | 0 | -4 | 3.5 | 2.9 | -3 | 0.4 | 0.6 | 4
CCOC(CNc1c([N+](=O)[O-])c(=O)n(C)c(=O)n1C)OCC | -9 | -11 | -0.8 | 6.5 | 0 | ? | 1.5 | -7
CCOC(=O)c1ccc(NS(=O)(=O)c2c(C)n(C)c(=O)n(C)c2=O)cc1 | -6 | -10 | -2.2 | 2.2 | -6 | -3.7 | -1.5 | -5
C=CCNC(=O)c1onc(CSc2ccc(F)c(F)c2)c1C(=O)O | -5 | -9 | -0.8 | 1.1 | 0 | 1.5 | -0.7 | 0
COc1cc(/C=N/Nc2ccccc2C(F)(F)F)ccc1O | -23 | -4 | -0.1 | / | -3 | -4.0 | 0.8 | -1
CC(CCn1cccn1)NC(=O)CCc1nnc(C2CCCCC2)o1 (stereo unspecified) | 2 | 1 | 8.9 | -0.8 | 7 | -2.3 | 0.3 | -6
O=C(Cn1nnc(-c2cccs2)n1)Nc1ccccc1C(F)(F)F | -14 | -6 | 3.0 | 2.9 | 7 | 9.5 | 1.0 | 1
Cc1ccc(N2C(=O)CC3(CC4C=CC3C4)C2=O)cc1 (stereo unspecified) | / | -1 | 1.9 | 0.9 | -2 | -0.6 | 0.2 | -5
COc1cc2c(cc1NC(=O)CC1SC(N3CCCC3)=NC1=O)oc1ccccc12 (stereo unspecified) | ? | 10 | -2.6 | 0.2 | 5 | -0.2 | -0.2 | -2
CSCC[C@H](NC(=O)COc1ccc(Cl)cc1)C(=O)N1CCC2(CC1)NCCc1[nH]cnc12 | -4 | -2 | 5.4 | 3.4 | -9 | -4.0 | -0.1 | -4
O=[N+]([O-])c1ccc(O)c(-c2nc(-c3ccccc3)c(-c3cccs3)[nH]2)c1 | 16 | -2 | 1.0 | 7.5 | 13 | -9.6 | -0.8 | 49
Cn1cc(C(=O)NC2CCCCC2)c(=O)c2cc(S(=O)(=O)N3CCOCC3)ccc21 | 0 | 9 | -3.3 | 3.0 | -4 | -0.9 | -0.7 | -3

(further entries)
SMILES | Calb FLC | T cruzi inh | LANA-H2A inh | UCH37 inh | Beta2AR agonist | RanGTP-Impb inh | Bfl-1 A1 inh | Beta apoptosis
CCOC(=O)c1c(NC(=O)COC(=O)Cc2c[nH]c3ccccc23)sc(C(=O)N(C)C)c1C | 10 | 4 | 1.1 | 2.0 | -3 | -2.5 | 2.3 | 3
NNC(=O)CCC(=O)Nc1ccccc1 | -3 | 2 | 2.4 | 3.7 | 2 | 1.0 | -0.5 | 5
CCCCOc1ccccc1C1C(C(=O)OC)=C(C)N(C)C(C)=C1C(=O)OC | 4 | 13 | 5.2 | 4.8 | 9 | -1.1 | 0.6 | 6
CC(C)CC[n+]1ccn(-c2nc3ccccc3nc2[N-]S(=O)(=O)c2ccc(Cl)cc2)c1 | -7 | 3 | -2.2 | -123 | 1 | 30* | -0.3 | -7
CCCN1Cc2cccc(C(=O)NCCc3ccccc3)c2C1=O | 3 | 21 | 3.8 | / | -4 | 3.8 | 0.0 | -2
CCCOc1ccc(/C=c2\sc3ncnn3c2=O)cc1 | -6 | -9 | 6.1 | / | -6 | -3.1 | 0.5 | -11
COc1ccc(N2Cc3ccccc3C2)cc1Cl | 0 | -15 | -1.7 | 4.0 | -12 | 3.5 | -4.9 | -9
COC(=O)c1ccc(CSc2nc3sc(C)c(C)c3c(=O)[nH]2)cc1 | -2 | -7 | 2.4 | 4.2 | 11 | -1.6 | -0.4 | -1
CCC(=O)Nc1cc(OC)c(NC(=O)c2ccccc2)cc1OC | 28 | -1 | -7.7 | 2.1 | -6 | -0.1 | 1.0 | 0
CCN(CC)S(=O)(=O)c1cccc(NC(=O)COC(=O)c2cc(=O)c3ccccc3o2)c1 | -14 | 4 | 23 | 1.6 | -3 | -0.4 | 0.8 | -1
Cc1ccc2nc(-c3ccc(NS(=O)(=O)c4ccc(F)c(F)c4)cc3)sc2c1 | 31 | 12 | 8.0 | -183 | -8 | 7.8 | -4.7 | 0
O=C(ONC1=NCCCCC1)c1c(F)cccc1F | -6 | -1 | -6.6 | 1.7 | 5 | 2.2 | 0.0 | -5
Cc1ccc(C)c(C(=O)COC(=O)c2ccc(Br)o2)c1 | 19 | -5 | -4.9 | 5.1 | -5 | -4.1 | -0.8 | -7
Cc1ccc(NC(=O)c2cccs2)cc1NC(=O)c1ccc(F)cc1 | -4 | -15 | -0.8 | 0.9 | 1 | -1.8 | 0.4 | 3
CC1CCC(C(C)C)C(OC(=O)COC(=O)c2ccc(N)cc2)C1 (stereo unspecified) | -34 | -8 | 2.2 | 1.8 | 4 | 3.5 | -0.4 | 7
CCN(CC)S(=O)(=O)c1cccc(C(=O)N/N=C/c2ccc(OC)c(O)c2)c1 | -22 | -23 | 0.0 | / | 8 | 2.1 | -0.1 | /
Cc1noc(C)c1COC(=O)CCN1c2ccccc2Sc2ccccc21 | 21 | -7 | -0.6 | 0.6 | 1 | -2.7 | 1.2 | -4
NC1=NC[C@@H](Cc2ccc(O)cc2)N1CCc1cccc(F)c1 | -9 | -7 | 2.8 | 1.9 | -7 | 1.4 | 0.7 | -5
CC(C)C(=O)N1CCN(c2ccccc2NC(=O)COc2ccccc2)CC1 | 3 | 32 | 2.4 | -1.3 | 9 | -3.4 | -0.2 | 5
O=C(Nc1ccc(F)cc1)Nc1cc(OCC(F)(F)F)cc(OCC(F)(F)F)c1 | -1 | 44 | 6.8 | 3.8 | 1 | 2.2 | 1.7 | 106*
CC1CCc2nn(CC(=O)Nc3c(F)cc(F)cc3Br)cc2C1 (stereo unspecified) | -7 | 4 | -0.6 | 0.7 | -3 | 5.2 | 0.3 | 0
COC(=O)Cc1cn(-c2ncc(C(F)(F)F)cc2Cl)c2ccccc12 | 2 | 22 | 2.9 | -2.0 | 2 | -1.6 | -0.7 | -3
COc1ccc(CCNC(=O)CSc2nnnn2C)cc1OC | -16 | -15 | -0.5 | -0.8 | 5 | -4.3 | 0.1 | 3
COc1ccc(C(=O)Nc2ccccc2N2CCCC2)cc1S(=O)(=O)N1CCOCC1 | 5 | -8 | -1.7 | 0.9 | 6 | 0.6 | -0.2 | /
Cc1[nH]c2ccccc2c1/C=N/NC(=O)CCC(=O)NCc1ccccc1 | 3 | -3 | -1.5 | / | -5 | -0.9 | 0.3 | -2

Next section.
SMILES | Calb FLC | T cruzi inh | LANA-H2A inh | UCH37 inh | Beta2AR agonist | RanGTP-Impb inh | Bfl-1 A1 inh | Beta apoptosis
CCOc1ccc(CCNC(=O)CCn2cccc2)cc1OCC | -2 | 7 | -2.5 | 1.0 | 0 | -4.1 | 0.0 | -13
C=CCN1C(=O)C(CC(=O)Nc2ccc(OCCC)cc2)N(CCCN2CCN(Cc3ccccc3)CC2)C1=S (stereo unspecified) | 2 | 67* | -8.1 | 2.9 | 35 | 0.1 | 0.7 | 9
Cc1cc(C(=O)N/N=C/c2cc(Br)cc(Br)c2OC(=O)c2ccccc2)n[nH]1 | 36 | 48 | 2.6 | / | / | -3.3 | 0.4 | 94*
Cc1ccc(NC2CCCN(C(=O)CN3C(=O)CSC3=O)C2)cc1C (stereo unspecified) | 4 | -4 | 2.0 | 4.5 | 10 | 0.3 | -0.1 | -8
O=C(Nn1cnc2ccccc2c1=O)C1CCCCC1 | 2 | -2 | -2.1 | -0.7 | -5 | 2.0 | 0.2 | -1
CC(C)[C@@H](C(=O)N1CCN(Cc2ccc3c(c2)OCO3)CC1)n1nnc2ccccc2c1=O | -19 | -6 | 8.4 | -2.8 | -2 | -3.8 | 2.1 | 4
CNC(=O)C1CN(C(=O)c2cccc(S(=O)(=O)N3c4ccccc4CC3C)c2)c2ccccc2O1 (stereo unspecified) | / | / | -1.2 | 4.2 | -4 | / | 1.5 | -8
Cc1ccc(C)c(S(=O)(=O)N2CCN(C(=O)c3cc(-c4cccs4)nn3-c3ccccc3)CC2)c1 | -5 | 23 | 0.0 | -0.5 | 5 | 5.3 | -0.6 | 28
COC(=O)c1ccc(N/C=C/C(=O)c2ccc(OC)c(OC)c2)cc1 | 7 | 9 | 4.9 | -12 | 4 | -4.6 | -3.1 | -2
O=C(CCl)N(c1ccccc1)c1c[nH]c2ccccc12 | 1 | 14 | 1.7 | 2.5 | 1 | -3.8 | 1.8 | -32
CN(CCC#N)C(=O)CSc1nnc(-c2c[nH]c3ccccc23)o1 | -2 | -7 | 0.4 | 2.1 | -8 | -1.2 | -0.7 | -2
Cc1cc(SCC(=O)c2cc3ccccc3o2)nc2ccccc12 | -16 | 10 | -4.7 | 0.4 | -1 | 4.1 | -0.6 | -2
O=C(c1ccc(F)cc1Cl)N(c1ccccn1)C1CCCCC1 | 3 | 0 | -3.3 | -1.4 | 4 | -0.6 | 0.6 | -5
O=C(COc1cc(Cl)c(Cl)cc1Cl)Nn1cnnc1 | -5 | -16 | 4.7 | 1.2 | -1 | 0.5 | 1.1 | 3
